# Assay outcomes deposited in PubChem by National Center for Advancing Translational Sciences (NCATS).
# TRPML1 blocker: blocks the human TRPML1 channel; TRPML1-inducible cells, Ca2+ dye fluorescence, FDSS; hits give low values; inhibition of EC80 agonist-evoked calcium signal; activity change, negative = inhibition, % (test concentration not listed); actives 0.02% (n = 390,000); AID 624415; in the data active means activity change below about -50%; inconclusive means about -30% to -50%; inactive means above about -30%;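 further: stimulus is agonist 54-4 at its EC80 concentration; on the % scale 0 is the no-effect control and ±100 the full control effect; compound concentration not given in the record; the text of the record puts the active cut at -80%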
# Target sequence (Q9GZU1 whole entry, looked up): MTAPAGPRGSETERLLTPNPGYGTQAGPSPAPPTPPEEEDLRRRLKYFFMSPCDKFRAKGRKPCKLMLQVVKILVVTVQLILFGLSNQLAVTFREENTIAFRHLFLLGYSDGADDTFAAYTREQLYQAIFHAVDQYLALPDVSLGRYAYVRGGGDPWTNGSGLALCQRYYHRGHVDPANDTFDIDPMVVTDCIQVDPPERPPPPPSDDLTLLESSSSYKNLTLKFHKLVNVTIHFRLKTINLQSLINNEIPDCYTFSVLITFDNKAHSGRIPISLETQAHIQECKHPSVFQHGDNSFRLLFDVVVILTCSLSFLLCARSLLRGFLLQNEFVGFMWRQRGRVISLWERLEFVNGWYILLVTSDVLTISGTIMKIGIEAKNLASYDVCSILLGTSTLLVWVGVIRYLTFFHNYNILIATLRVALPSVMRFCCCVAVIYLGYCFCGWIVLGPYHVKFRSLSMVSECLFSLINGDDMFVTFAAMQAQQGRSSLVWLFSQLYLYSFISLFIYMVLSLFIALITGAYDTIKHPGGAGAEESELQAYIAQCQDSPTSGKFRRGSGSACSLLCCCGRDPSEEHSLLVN
#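 Tet-induced TRPML1-DL cells loaded with Ca8 no-wash calcium dye were read kinetically on FDSS. Compound addition was followed by EC80 agonist 54-4 (4 uM final); inhibition was read over 110 s.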
# TRPML1 ag: human mucolipin-1 channel agonism. Q9GZU1. TRPML1-expressing cells, Ca2+ dye fluorescence, FDSS; host cell line not named in the record; reference of the full effect not given here. activation, % (concentration not given with the values). actives 0.12% (n = 410,000). AID 624414; in the data active = activation above about 50%; inconclusive = about 30% to 50%; inactive = below about 30%; further: 0% is about no effect; the text of the record puts the active cut at 80%
#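 Cells: TRPML1-DL, 1X Tet inducer, ~16 h at 37 degrees C/5% CO2. Dye: ABD Ca8 no-wash + quencher, 45-90 min RT. Read: 10 s baseline, compound add, 110 s agonist phase; 54-4 EC80 (4uM final), 110 s antagonist phase.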
# CtBP-E1A inh: inhibitors of CtBP/E1A interaction. AlphaScreen GST-E1A/His-CtBP binding, 1536-well; hits give low values; control for the full effect not named in the record. actives 0.49% (n = 340,000). activity change, % (no concentration beside the values); in the data active means activity change below about -65%; inconclusive means about -30% to -65%; inactive means above about -30%; further: on the % scale 0 is the no-effect control and ±100 the full control effect; compound concentration not given in the record
#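 Steps: dispense buffer (Tris pH 8.0, NaCl 300 mM, TCEP 1 mM, BSA, Tween 20); add 5X protein mix (GST-E1A, His-CtBP, 125 nM each); pin 23 nL compound; 2 h at 37 °C, dark; add 5X beads (50 ug/mL); 1 h; read.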
# TRPV1 PAM: enhances activation of the human vanilloid receptor TRPV1. Q8NER1. TRPV1-expressing cells, Fluo-8 calcium influx, capsaicin EC20 potentiation; host cell line not named in the record; control for the full effect not named in the record. potentiation, % at 8.33 µM. actives 0.02% (n = 320,000); active means potentiation above 80%; inconclusive means 30% to 80%; inactive means below 30%; further: 0% is about no effect
#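 TRPV1-expressing cells were cultured overnight at 35.5C and loaded with Fluo-8 calcium dye for 40 to 90 min at room temperature. After a 10 s baseline, compound was added and calcium influx was read kinetically for 3 min (ex 480/em 520 nm).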
# Six1-Eya2 blk: inhibitors of human Six1/Eya2 interaction; activity change, % (test concentration not listed); actives 0.56% (n = 360,000); AID 651725; Q15475+O00167; AlphaScreen GST-Six1/His-Eya2 binding, biochemical; hits give low values; control for the full effect not named in the record; in the data active = activity change below about -65%; inconclusive = about -30% to -65%; inactive = above about -30%; further: on the % scale 0 is the no-effect control and ±100 the full control effect; compound concentration not given in the record
#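 AlphaScreen with GST-Six1 and His-Eya2 (5X mix: 250 nM and 500 nM), glutathione donor and nickel acceptor beads; buffer 50 mM Tris pH 8.0, 300 mM NaCl, 1 mM TCEP; 1 h at 37 C in the dark.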
# D2 PAM: human D2 receptor positive allosteric modulation. P14416. DiscoveRx D2 beta-arrestin cells, luminescence, 90 min; 100% = 57 uM dopamine signal. potentiation, % (concentration not given with the values). actives 0.23% (n = 360,000); active = potentiation of 50% or more; inconclusive = 30% to 50%; inactive = 30% or less;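 further: compound concentration not given in the record; tested on top of an EC20 dose of dopamine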
# Target sequence (P14416 whole entry, looked up): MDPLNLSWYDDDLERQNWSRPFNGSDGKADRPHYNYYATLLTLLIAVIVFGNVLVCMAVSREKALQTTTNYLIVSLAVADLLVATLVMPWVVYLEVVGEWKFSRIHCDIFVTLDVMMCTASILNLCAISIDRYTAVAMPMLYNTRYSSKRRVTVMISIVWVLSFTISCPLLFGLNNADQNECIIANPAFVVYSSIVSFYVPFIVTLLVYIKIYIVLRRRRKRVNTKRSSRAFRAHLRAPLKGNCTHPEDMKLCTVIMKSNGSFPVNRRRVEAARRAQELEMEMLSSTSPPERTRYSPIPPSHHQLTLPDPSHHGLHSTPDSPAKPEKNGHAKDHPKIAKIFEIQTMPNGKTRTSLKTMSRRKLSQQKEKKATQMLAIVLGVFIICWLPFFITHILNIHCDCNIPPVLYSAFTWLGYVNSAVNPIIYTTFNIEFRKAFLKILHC
#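 PathHunter beta-arrestin assay in DiscoveRx D2 cells. Compounds were added with an EC20 of dopamine (50 nM final) for 90 min at 37 deg C. Luminescence was read 1 h after detection reagent, with 57 uM dopamine as the EC100 control.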
# * marks the source's active call; other numbers are inactive results; ? = inconclusive; . = not tested or not shown; & = joins results of further samples.
nr | compound | TRPML1 blocker | TRPML1 ag | CtBP-E1A inh | TRPV1 PAM | Six1-Eya2 blk | D2 PAM
1 | Cc1cc(C)n(-c2cccc(CN3CCC(CO)(Cc4ccccc4)CC3)c2)n1 | 12 | 0.4 | 7 | 3 | -5 | -16
2 | O=C(NC1CC1)c1ccc(-c2ccc3nccn3c2)cc1 | . | 0.2 | -12 | . | -20 | -2
3 | Cc1ccc2cc(C)c3nnc(SCC(=O)Nc4nc5c(s4)CCCC5)n3c2c1C | 16 | 2.0 | -28 | . | -19 | -9
4 | COc1ccc(-n2cnc3c(sc4nc(N5CCOCC5)c5c(c43)CCCC5)c2=O)cc1 | -9 | -0.5 | 3 | -8 | 0 | -15
5 | COCCN1C(=O)C(O)=C(C(C)=O)C1c1ccc(F)cc1 (stereo unspecified) | 11 | 0.8 | 5 | 16 | -2 | 0
6 | O=C(c1ccccc1F)N1CCN(Cc2ccccc2F)CC1 | 8 | -0.3 | -2 | -2 | 3 | -16
7 | CCCCNC(=O)N1CCOCCOCCN(C(=O)NCCCC)CCOCC1 | -7 | -0.1 | 4 | -2 | 14 | -17
8 | CC1CCCC(NC(=O)COC(=O)[C@@H]2CC(O)CN2S(=O)(=O)c2ccc3c(c2)OCCO3)C1C (stereo partly specified) | 19 | -0.5 | 0 | -3 | 3 | -2
9 | N#Cc1ccccc1OCC(=O)Nc1cccc(S(=O)(=O)N2CCCC2)c1 | 14 | 0.4 | -1 | -12 | -3 | -2
10 | CCCCNC(=O)Nc1ccc2c(c1)N(C)C(=O)c1ccccc1S2 | -6&-4 | 0.2&5.1 | 0 | -6 | 3 | -15
11 | CN(C)c1ccc(CNC(=O)/C=C/[C@H]2O[C@@H](n3cnc4c(NC(=O)c5ccccc5)ncnc43)[C@H](O)[C@@H]2O)cc1 | -6 | 2.2 | -20 | . | 6 | -3
12 | COc1ccc(NC(=O)c2ccccc2C)c(OC)c1 | 5 | 0.9 | -6 | -1 | -3 | -5
13 | CCN1/C(=C\C(=S)Nc2ccccc2)Sc2ccccc21 | -15 | -1.4 | -1 | 6 | ? | -35
14 | CCN(CC(=O)Nc1cc(Cl)ccc1C)C(=O)C1COc2ccccc2O1 (stereo unspecified) | 2 | -0.4 | . | 14 | -1 | -10
15 | Cc1c(OCc2ccccc2)c(=O)ccn1Cc1ccc(Cl)cc1 | 31 | 1.6 | 8 | 4 | 10 | 7
16 | C=CCNC(=O)COCc1cc(-c2ccc3c(c2)OCO3)on1 | -10 | 0.7 | 1 | 0 | -3 | -10
17 | N/C(=N\OC(=O)c1ccc(Cl)cc1)c1ccn[nH]1 | 14 | 1.1 | -2 | -13 | 0 | 2
18 | CN(C(=O)CCCN1C(=O)c2ccccc2C1=O)C1CCCCC1 | 13 | 1.8 | -1 | 1 | 6 | 2
19 | CSc1ccc(C(=O)NC2CCSc3ccccc32)cc1 (stereo unspecified) | -2 | 0.6 | 2 | -15 | 2 | -1
20 | COc1cc(NC(=O)c2sc3ncn(CC(=O)N4CCC(C)CC4)c(=O)c3c2C)cc(OC)c1OC | -14 | -0.6 | 0 | 3 | -5 | 10

# Entries above that contain two or more sulfur atoms, in the order listed:
nr | compound | TRPML1 blocker | TRPML1 ag | CtBP-E1A inh | TRPV1 PAM | Six1-Eya2 blk | D2 PAM
3 | Cc1ccc2cc(C)c3nnc(SCC(=O)Nc4nc5c(s4)CCCC5)n3c2c1C | 16 | 2.0 | -28 | . | -19 | -9
13 | CCN1/C(=C\C(=S)Nc2ccccc2)Sc2ccccc21 | -15 | -1.4 | -1 | 6 | ? | -35
19 | CSc1ccc(C(=O)NC2CCSc3ccccc32)cc1 (stereo unspecified) | -2 | 0.6 | 2 | -15 | 2 | -1

# More results:
nr | compound | TRPML1 blocker | TRPML1 ag | CtBP-E1A inh | TRPV1 PAM | Six1-Eya2 blk | D2 PAM
21 | CCCc1nnc(NC(=O)NCCN2C(=O)C3C4C=CC(C4)C3C2=O)s1 (stereo unspecified) | 10 | -1.2 | 0 | -3 | -9 | -6
22 | COc1ccc(-c2[nH]ncc2CN(CC2CCC(=O)N2)C(C)C)cc1F (stereo unspecified) | -3 | -0.4 | -5 | -8 | -15 | -8
23 | Cc1cc(C)cc(C(=O)OCC(=O)N2CCCC2)c1 | -8 | 1.2 | 1 | -14 | 8 | 0
24 | CC(C(=O)OCC(=O)c1ccc(F)cc1)N1C(=O)C2C3C=CC(C3)C2C1=O (stereo unspecified) | -6 | 0.6 | 2 | -7 | 10 | -1
25 | Cn1c(COc2ccc(Cl)cc2)nnc1SCc1ncc(-c2ccccc2)o1 | -4 | -0.2 | -4 | 7 | -3 | -9
26 | CCOC(=O)c1cc2c(=O)n3ccccc3nc2n(Cc2ccco2)c1=NC(=O)c1cccnc1 | -10 | 10 | 1 | -5 | -1 | -17
27 | COC(=O)/C(C#N)=C/c1c(N2CCN(c3cccc(Cl)c3)CC2)nc2c(C)cccn2c1=O | 33 | 2.0 | 0 | -14 | -7 | -10
28 | CCOC(=O)c1ccccc1OC(=O)CS(=O)c1ccccc1[N+](=O)[O-] (stereo unspecified) | 45 | 0.0 | 0 | 0 | 4 | 5
29 | CC1CN(c2ccccc2)c2nc3c(c(=O)[nH]c(=O)n3C)n2C1 (stereo unspecified) | 0 | -1.0 | -4 | 5 | 1 | -8
30 | Cc1nnc(NC(=O)C2CCN(c3nnnn3-c3ccccc3)CC2)s1 | 4 | -0.8 | 6 | -1 | 0 | -9
31 | COC(=O)c1ccccc1S(=O)(=O)N1CCC(c2nc3ccccc3o2)CC1 | -5 | 0.0 | 0 | -3 | -5 | -10
32 | Cc1c(C(=O)Nc2ccc(-n3cnnn3)cc2)oc2ccccc12 | -5 | 0.2 | 1 | -4 | -1 | 1
33 | Cc1cccc(NC(=O)C2CCCN(S(=O)(=O)c3ccc4c(c3)oc(=O)n4C)C2)c1 (stereo unspecified) | -16&20 | 1.3&1.9 | -1 | -12 | 0 | -1
34 | Cc1ccc(Cn2ccc(NC(=O)CCSc3nc(-c4ccco4)cc(C(F)(F)F)n3)n2)cc1 | 37 | 2.0 | -3 | 17 | -9 | -7
35 | Cc1c(C2=CCN(S(=O)(=O)c3ccc(Cl)cc3)CC2)c2ccccc2n1C | -2 | 0.7 | 1 | 15 | -8 | -2
36 | CCOCC(=O)NC1CCc2cc(OC(=O)COCC)c(OC)c(OC)c2-c2ccc(SC)c(=O)cc21 (stereo unspecified) | -1 | 0.3 | -8 | . | -5 | 11
37 | CC[C@@]1(C(=O)OC)N[C@H](CN(C)S(=O)(=O)c2ccc(C(F)(F)F)cc2)[C@@H]2C(=O)N(C)C(=O)[C@@H]21 | -6 | -0.9 | 4 | . | 3 | 0
38 | COC(=O)c1cc(=O)nc2sccn12 | -5 | -0.5 | 0 | -4 | 8 | -8
39 | Cc1cc(C)c(N)c(C(=O)O)c1 | 6 | 0.0 | . | -7 | -2 | 6
40 | O=C(NCc1ccccc1)c1cc(C2CCCN(S(=O)(=O)c3ccccc3)C2)on1 (stereo unspecified) | 4 | 0.2 | 1 | . | -2 | -1

nr | compound | TRPML1 blocker | TRPML1 ag | CtBP-E1A inh | TRPV1 PAM | Six1-Eya2 blk | D2 PAM
41 | O=C1NC2=C(C(=O)c3ccccc32)C(c2ccccc2)N1 (stereo unspecified) | 3 | 0.7 | 7 | -7 | -9 | -22
42 | CC(=O)Nc1ccc(NC(=O)C(C)Sc2n[nH]c(-c3cccs3)n2)cc1 (stereo unspecified) | -10 | 0.0 | . | 11 | 8 | -2
43 | Cc1ccc(S(=O)(=O)N2CCN(Cc3ccsc3)CC2)cc1 | -2 | 0.2 | . | 2 | -2 | -3
44 | NS(=O)(=O)c1ccc(CCNC(=O)c2cc(S(=O)(=O)N3CCCCC3)ccc2Cl)cc1 | -2 | -0.3 | -2 | . | -5 | -5
45 | O=C(NC1CCN(Cc2ccccc2)CC1)c1cc(S(=O)(=O)Nc2ccc(F)cc2)ccc1Cl | -8 | 0.3 | -6 | -1 | -6 | -37
46 | COc1cc(C(=O)Nc2ccc(S(=O)(=O)N(C)c3ccccc3)cc2)cc(OC)c1OC | 35 | 3.6 | -4 | -3 | -2 | -13
47 | CC(Oc1ccccc1)C(=O)N=Nc1c(O)[nH]c2ccc(Br)cc12 (stereo unspecified) | -11 | 0.1 | -13 | 21 | 6 | -11
48 | O=C(Cc1csc(Nc2nc(=S)[nH]c3ccccc23)n1)N1CCN(c2cccc(C(F)(F)F)c2)CC1 | -3 | 0.4 | -1 | -5 | -10 | -8
49 | O=C(Cc1ccccc1)N1CCN(c2ncccn2)CC1 | 4 | -0.3 | 3 | -4 | 3 | -1
50 | Cc1cc(C)nc(-n2nc(C)cc2NC(=O)CN2CCC(C)CC2)n1 | 9 | -0.5 | 19 | -9 | -10 | -26
51 | Cc1ccc(C(=O)NCc2ccccn2)cc1S(=O)(=O)N1CCOCC1 | 14 | -0.8 | 2 | -4 | 1 | -3
52 | COc1ccc(CCn2c(-c3ccc(F)cc3)nc3c(c(=O)c4ccccc4n3C)c2=O)cc1OC | 3 | -1.0 | 9 | -4 | -3 | -7
53 | CC1(C)SC2c3ccccc3C(=O)N2[C@@H]1C(=O)NC1CCCC1 (stereo partly specified) | 25 | 0.0 | 8 | -1 | 2 | -8
54 | C=CCN(CC=C)C(=O)CN1C(=O)NC(c2ccccc2)(c2ccccc2)C1=O | -4 | 0.0 | 1 | 6 | -2 | 4
55 | CCn1c(SCC(=O)Nc2nncs2)nnc1C(C)NC(=O)c1ccccc1Br (stereo unspecified) | 8 | 0.5 | 21 | -7 | 0 | -3
56 | C[C@H](NC(=O)Nc1ccccc1F)C(=O)O | -1 | 0.7 | 16 | -3 | 27 | 3
57 | N#CCCn1cc(/C=C2\NC(=S)N(c3ccccc3)C2=O)c(-c2ccc(F)cc2)n1 | 17 | 0.5 | ? | 8 | -8 | -4
58 | CCOC(=O)C1=C(C)NC(=O)NC1c1ccc(OCC(=O)N2CCCCC2)cc1 (stereo unspecified) | 4 | -0.6 | 0 | -2 | 10 | -13
59 | COC1OC2COC(c3ccccc3)OC2C(O)C1N (stereo unspecified) | 19 | -0.6 | 5 | . | 0 | -3
60 | Cc1cccc(NC(=O)CSCC(=O)N=c2sccn2C)c1 | -8 | 0.5 | -14 | 4 | 3 | -4

# Reformatted field by field: 4 of the compounds above
(41) O=C1NC2=C(C(=O)c3ccccc32)C(c2ccccc2)N1 (stereo unspecified)
  TRPML1 blocker: 3	TRPML1 ag: 0.7	CtBP-E1A inh: 7	TRPV1 PAM: -7	Six1-Eya2 blk: -9	D2 PAM: -22
(42) CC(=O)Nc1ccc(NC(=O)C(C)Sc2n[nH]c(-c3cccs3)n2)cc1 (stereo unspecified)
  TRPML1 blocker: -10	TRPML1 ag: 0.0	CtBP-E1A inh: .	TRPV1 PAM: 11	Six1-Eya2 blk: 8	D2 PAM: -2
(43) Cc1ccc(S(=O)(=O)N2CCN(Cc3ccsc3)CC2)cc1
  TRPML1 blocker: -2	TRPML1 ag: 0.2	CtBP-E1A inh: .	TRPV1 PAM: 2	Six1-Eya2 blk: -2	D2 PAM: -3
(44) NS(=O)(=O)c1ccc(CCNC(=O)c2cc(S(=O)(=O)N3CCCCC3)ccc2Cl)cc1
  TRPML1 blocker: -2	TRPML1 ag: -0.3	CtBP-E1A inh: -2	TRPV1 PAM: .	Six1-Eya2 blk: -5	D2 PAM: -5
